NPR1 antag: antagonists of human natriuretic peptide receptor Npr1. Potency, µM (series often up to 46.3 µM), without a hit: at the highest dose activity change, negative = inhibition, actives largely listed as inhibitors. P16066. HEK293 hNpr1 GloSensor cGMP, ANP-stimulated luminescence. 1.6% of 76,000 active; active = well fitted inhibition curve with a large enough effect; inconclusive = small, poorly fitted or top-dose-only effect; inactive = no such curve, though single readings can be large or run the other way;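 also: nearly all actives have a fitted effect of over 60% in size; nearly all hits also lower the signal before the agonist is added; a reference antagonist and vehicle were the controls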
Target sequence (P16066 whole entry, looked up): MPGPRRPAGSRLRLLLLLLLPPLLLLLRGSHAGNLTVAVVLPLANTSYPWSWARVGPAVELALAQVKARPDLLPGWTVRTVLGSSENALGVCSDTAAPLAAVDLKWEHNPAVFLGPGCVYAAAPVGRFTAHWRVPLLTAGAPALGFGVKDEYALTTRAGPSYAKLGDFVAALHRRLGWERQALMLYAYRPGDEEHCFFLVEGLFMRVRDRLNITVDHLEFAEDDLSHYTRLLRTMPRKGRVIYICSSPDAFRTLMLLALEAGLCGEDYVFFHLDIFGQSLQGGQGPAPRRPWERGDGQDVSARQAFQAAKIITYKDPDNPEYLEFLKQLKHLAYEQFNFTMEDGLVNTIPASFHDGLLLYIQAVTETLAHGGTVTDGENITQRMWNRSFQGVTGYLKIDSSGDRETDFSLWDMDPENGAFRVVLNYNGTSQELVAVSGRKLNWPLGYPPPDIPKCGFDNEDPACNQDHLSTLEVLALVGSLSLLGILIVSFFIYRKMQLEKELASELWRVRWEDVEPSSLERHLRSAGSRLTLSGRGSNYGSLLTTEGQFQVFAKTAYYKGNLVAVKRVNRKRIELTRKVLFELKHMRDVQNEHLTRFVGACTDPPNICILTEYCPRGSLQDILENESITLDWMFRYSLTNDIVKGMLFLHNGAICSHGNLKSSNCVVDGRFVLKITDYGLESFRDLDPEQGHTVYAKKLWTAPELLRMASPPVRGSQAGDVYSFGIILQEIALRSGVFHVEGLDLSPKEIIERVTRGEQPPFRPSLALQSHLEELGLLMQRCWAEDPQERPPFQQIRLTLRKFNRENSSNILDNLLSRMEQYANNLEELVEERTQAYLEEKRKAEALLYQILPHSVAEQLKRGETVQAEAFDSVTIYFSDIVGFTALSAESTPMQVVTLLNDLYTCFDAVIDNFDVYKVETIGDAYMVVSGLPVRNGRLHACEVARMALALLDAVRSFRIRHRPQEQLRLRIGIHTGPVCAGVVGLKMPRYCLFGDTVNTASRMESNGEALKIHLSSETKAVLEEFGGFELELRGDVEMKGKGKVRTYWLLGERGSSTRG
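Compound pre-incubated 30 min at room temperature on GloSensor-loaded HEK293 cells stably carrying hNpr1 and the pGS-40F cGMP biosensor. Stimulation uses hNppA at 0.1 nM final; luminescence is taken at baseline and 20 min post-agonist.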
An asterisk follows results filed as active; ? = inconclusive; [ ] = another dose, or the depositor's remark. % is scaled to controls: 0 for no effect and ±100 for the full control effect; potency is read from the fitted curve at half-maximal effect. The list is partial; the hit share may differ from the screen's.

SMILES | NPR1 antag
Cc1cnn(CCC(=O)N2CC(F)(F)C[C@H]2c2nnc(C)o2)c1 | -3%
CN1c2cccnc2CN(Cc2ccccn2)CC[C@H]1CO | 4%[70.6 µM]
CCN(Cc1ccncc1)C(=O)C1(Oc2ccc(C)cc2)CCNCC1 | 1%
CCCCNC(=O)CCc1cc2ccc(C)cc2[nH]c1=O | -1%
COCC(=O)N1CC[C@]2(O)CCN(C(=O)c3ccc(OC)o3)C[C@@H]2C1 | 1%
CC(C)c1ccc(N2C(=O)[C@@H]3C[C@@H](NC(=O)C4CCN(c5nccc(C(F)(F)F)n5)CC4)CCN3C2=O)cc1 | ?
COc1ccccc1OCCN1C(=O)C2(CCOCC2)CC1c1nnnn1C(C)(C)C (centres undefined) | 1%
O=c1c2c(CO)c(-c3ccccc3)nn2ccn1Cc1cc(F)ccc1F | -12%
NCc1cc(NC(=O)c2ccccn2)cc(C(=O)N2CC[C@H]3CNC[C@H]32)c1 | -1%
COc1ccc(OC)c(CN2CCCC(COc3ccccc3C(=O)N3CCCC3)C2)c1 (centres undefined) | 0%
O=C(c1ccno1)N1CCOC[C@H](Oc2ccc(C(F)(F)F)cc2)C1 | -2%[70.6 µM]
COc1ccccc1-c1ccnc(N[C@H]2CO[C@H]3[C@@H]2OC[C@@H]3NC(=O)Nc2cccc(C(F)(F)F)c2)n1 | 1%
COCc1nnc2n1CCC(NC(=O)CCc1ccc(OC)cc1)CC2 (centres undefined) | 0%
CC(C)c1ccc(CC(=O)N2CCCc3ncc(C(=O)NCc4cccc(Cl)c4)cc32)cc1 | -13%
COc1cccc(CC(=O)NCCC2CCN(C(=O)Nc3ccccc3C)CC2)c1 | 0%
CC1CCCN(C(=O)CN2CCCc3nc(-c4ccccc4)ncc3C2=O)C1 (centres undefined) | -14%
CNC(=O)NC[C@H]1CCN(Cc2ccccc2C#N)C[C@H]1N(C)C | 5%
O=C(Nc1ccc(N2CCOCC2)cc1)C1CN(S(=O)(=O)C2CC2)CC12CCCCC2 (centres undefined) | 5%
COCCc1noc([C@@H]2CN(Cc3ccoc3)C[C@H]2CO)n1 | -1%
CC(=O)N[C@@H]1CCC[C@@H](C(=O)NCc2cc(C)on2)CC(=O)N(C)C1 | -1%[70.6 µM]

Copied from the results shown, 13 compounds:
SMILES | NPR1 antag
Cc1cnn(CCC(=O)N2CC(F)(F)C[C@H]2c2nnc(C)o2)c1 | -3%
CN1c2cccnc2CN(Cc2ccccn2)CC[C@H]1CO | 4%[70.6 µM]
CCN(Cc1ccncc1)C(=O)C1(Oc2ccc(C)cc2)CCNCC1 | 1%
CCCCNC(=O)CCc1cc2ccc(C)cc2[nH]c1=O | -1%
COCC(=O)N1CC[C@]2(O)CCN(C(=O)c3ccc(OC)o3)C[C@@H]2C1 | 1%
CC(C)c1ccc(N2C(=O)[C@@H]3C[C@@H](NC(=O)C4CCN(c5nccc(C(F)(F)F)n5)CC4)CCN3C2=O)cc1 | ?
COc1ccccc1OCCN1C(=O)C2(CCOCC2)CC1c1nnnn1C(C)(C)C (centres undefined) | 1%
O=c1c2c(CO)c(-c3ccccc3)nn2ccn1Cc1cc(F)ccc1F | -12%
NCc1cc(NC(=O)c2ccccn2)cc(C(=O)N2CC[C@H]3CNC[C@H]32)c1 | -1%
COc1ccc(OC)c(CN2CCCC(COc3ccccc3C(=O)N3CCCC3)C2)c1 (centres undefined) | 0%
O=C(c1ccno1)N1CCOC[C@H](Oc2ccc(C(F)(F)F)cc2)C1 | -2%[70.6 µM]
COc1ccccc1-c1ccnc(N[C@H]2CO[C@H]3[C@@H]2OC[C@@H]3NC(=O)Nc2cccc(C(F)(F)F)c2)n1 | 1%
COCc1nnc2n1CCC(NC(=O)CCc1ccc(OC)cc1)CC2 (centres undefined) | 0%

(continued)
SMILES | NPR1 antag
O=C(Nc1ccncc1)C1=NO[C@@H]2CN(CCc3ccccc3)C[C@H]12 | ?
CN1C(=O)CCC2(CNC(=O)Nc3ccc4c(c3)OCCO4)CCC=C12 (centres undefined) | 1%
COc1ccc(C(=O)N2CCC(Cc3nc(-c4ccc(F)cc4)no3)CC2)cc1F | 1.1µM*
CCNC(=O)c1cccnc1OC1CCN(C(=O)CC)C1 (centres undefined) | 3%
O=C(c1cocn1)N1CCNc2cnc(Nc3cccc(C(F)(F)F)c3)nc2C1 | 32µM*
COc1ccc(-c2cc(N3CCC(NC(=O)c4ccc(F)cc4Cl)C3)n[nH]2)cc1 (centres undefined) | -6%
COC(=O)[C@@H]1Cc2ncn(C(C)C)c2CN1S(=O)(=O)Cc1ccccc1 | -2%[70.6 µM]
Cc1ccc(C)c(C(=O)N2C[C@@H](F)C[C@H]2C(=O)N2CCCCC2)c1 | -5%
CC(C)C[C@H](NC(=O)[C@@H]1C[C@@H](n2nnc(C(N)=O)c2C(N)=O)CCN1C(=O)c1cnccn1)C(N)=O | 4%
Cc1cccc(CN2CCN(C(=O)c3cnc4ccccn4c3=O)CC2=O)c1 | 4%
COCc1nc(-c2ccc(OC3CCN(C(=O)c4n[nH]c5ccccc45)C3)cc2)no1 (centres undefined) | ?
CCO[C@H]1CN(C(=O)CCCOc2ccccc2)C[C@@H]1O | -6%
CNC(=O)CCn1ncc2cc(OCc3ccccc3-c3ccsc3)ccc21 | 0%[70.6 µM]
O=C(Cn1nc2c(cc1=O)CCCCC2)Nc1ccncc1 | 0%
O=C(NCc1ccccc1)c1cnc2n1CCN(Cc1ccc3c(c1)CCO3)CC2 | -6%[70.6 µM]
O=C(NCCCc1nnc2ccccn12)C1CC(=O)N(c2n[nH]c3ccccc23)C1 (centres undefined) | 1%
COc1ccccc1C(=O)NC[C@@H]1C=C(C)[C@H](CC(=O)N2CCCC2)C[C@H]1C(C)C | -13%[70.6 µM]
CN(Cc1ccccc1)C(=O)Cn1nc2c(cc1=O)CCCC2 | -5%
COc1cccc(-c2nc(-c3nnn4c3COC(c3ccc(C)cc3)C4)no2)c1 (centres undefined) | 0%
CNc1ncc(C(=O)N2CCCC(c3[nH]ncc3-c3ccc(F)cc3)C2)cn1 (centres undefined) | -2%
NC(=O)[C@H](Cc1ccc(O)cc1)NC(=O)C1=C[C@@H](NC(=O)c2cnccn2)[C@@H](O)[C@H](O)C1 | 5%
O=c1[nH]c(C2CCN(Cc3cccc(-c4cccs4)c3)CC2)nc2ccc(F)cc12 | ?
Cc1nc2cccnc2n1CC1CCCN(S(=O)(=O)c2ccc(F)cc2)C1 (centres undefined) | -5%
CSc1cccc(NC(=O)N2CCC3(CCC(=O)N(C4CC4)C3)CC2)c1 | 2%
COc1ccc(C(=O)N[C@@H]2CN(C(=O)NCc3ccccc3)CCC[C@H]2O)cc1 | -1%[70.6 µM]
COc1ccc(C(=O)Nc2ccc3c(c2)CN(C(C)c2ccc(F)cc2)C(=O)CO3)cc1OC (centres undefined) | -16%
Cc1ccccc1CN1CCC(CN(Cc2cccnc2)C(=O)C2CC=CCC2)CC1 (centres undefined) | -1%
Cc1cnn(CCC(=O)N2CCC3(CCNCC3)CC2)c1 | 0%
Cc1ccc(NC(=O)N2C[C@@H](Oc3ccccc3)C[C@H]2C(=O)N2CCOCC2)cc1C | -1%
CCOc1ccc(NC(=O)CN2C(=O)NC3(CCC(C)CC3)C2=O)cc1 (centres undefined) | 0%
COc1ccc(CNC(=O)N2CCC(CCOc3ccccc3OC)C2)cc1 (centres undefined) | -16%
CC(C)NC(=O)N1CCC(OCCOc2cccnc2)CC1 | 5%
O=C1NC2(CCN(C(=O)OCc3ccccc3)C2)N=C1c1ccncc1 (centres undefined) | ?
CCCc1nc(C(=O)NC(c2ccc(OC)nc2)C2CC(O)C2)cs1 (centres undefined) | 3%
COC[C@@H]1CN(C(=O)c2cc(C)cc(C)c2)C[C@H]1C(N)=O | -16%
CN1CC(C(=O)N2CCc3c(nc(-c4ccncc4)nc3N(C)C)C2)CC1=O (centres undefined) | 1%
CC1(C)C(=O)N(Cc2ccccc2F)[C@H]2CN(C3CCOCC3)C[C@H]2[S+]1(=O)[O-] | 1%[70.6 µM]
Cc1cccc(OC[C@H]2C[C@@H](NCc3c(C)noc3C)[C@H](O)[C@@H]2O)n1 | 0%[70.6 µM]
COc1ncc(-c2ccc3ncn(C4CC4)c(=O)c3n2)cn1 | 4%[70.6 µM]
CNC(=O)[C@@H]1CN(C(=O)NCc2ccccc2)C[C@H]1c1nc(C)no1 | 0%
CCOC(=O)c1ccc(NC(=O)Cn2ccn3nc(-c4ccccc4)c(CO)c3c2=O)cc1 | -10%
CN(C)CCCn1ccnc1C1CCCN(S(=O)(=O)N2CCCC2)C1 (centres undefined) | -3%
CN(C)c1ccc(-c2cc(-c3ccc(=O)[nH]c3)c3cncn3c2)cc1 | -14%[70.6 µM]
O=C(CCN1CCCCC1=O)N[C@H](C1CCNCC1)C1CC(O)C1 (some centres undefined) | -1%
Cc1nc(C)c(C(=O)N[C@@H]2CN(Cc3ccncc3)C[C@H]2CN(C)C)s1 | -3%
O=C(CCc1cc(=O)[nH]o1)N[C@H](c1ccccn1)C1CC(O)C1 (some centres undefined) | -1%
Cn1cc2c3c(cccc31)CN(C(=O)Cc1ccc(Cl)cc1)CC2 | -3%
O=C(CCc1nnn2c1CN(S(=O)(=O)c1ccc(F)cc1)CC2)N1CCOCC1 | -7%
O=C(O)CCC(=O)N1CCN2C(=O)N(Cc3ccccc3)C[C@H]2C1 | 11%[70.6 µM]
O=C(N[C@H]1CCN2C(=O)c3cc(/C=C/c4ccccc4)ccc3NC(=O)[C@H]12)c1cnccn1 | -9%[70.6 µM]
CC[C@H]1CN(C(=O)Nc2cccc(OC)c2)CC[C@H]1CC(=O)N(C)CCC#N | -18%[70.6 µM]
COc1cccc([C@@H]2CN(C(=O)CCc3n[nH]c(C)n3)C[C@H]2C(=O)O)c1 | 8%
Cc1ccc(N2C(=O)[C@@H]3C[C@@H](NC(=O)c4cccn4C)CCN3C2=O)cc1 | 0%[70.6 µM]
COC1CCC12CCN(C(=O)c1ccnn1C)CC2 (centres undefined) | 8%
Cc1cnc(CCNS(=O)(=O)c2cccc(F)c2)n1C(C)C | 6%
CN1CCC(N2CCC[C@@H](O)[C@H](NC(=O)c3ccc(OCC(N)=O)cc3)C2)CC1 | 4%[70.6 µM]
COc1ccc(OC)c(NC(=O)c2cc3c(N4CCSCC4)nc(C)cn3n2)c1 | -2%
CC1=C[C@@H](CNCc2ccco2)[C@H](C(C)C)C[C@H]1Cc1nnc(C(C)(C)C)o1 | 1%[70.6 µM]
Cc1cnc(C(=O)N2CCC(c3noc(-c4cccnc4)n3)C2)cn1 (centres undefined) | -1%
CCN(CC)C(=O)NCc1cccnc1N1CCN(c2ccccn2)CC1 | -6%

(further entries)
SMILES | NPR1 antag
CS(=O)(=O)N1C[C@@H](COCC2CC2)[C@H](c2ccccn2)C1 | -3%
Fc1ccc(-c2noc([C@@H]3Cc4nc[nH]c4CN3Cc3cccs3)n2)cc1Cl | -28%[70.6 µM]
Cc1cccc(OCCc2noc(C3CN(C(=O)C(C)C)C3)n2)c1 | 0%
O=C(c1cccs1)N1CCOCC2(CN(Cc3cc(F)cc(F)c3)C2)C1 | 2%[70.6 µM]
COc1ccccc1C(=O)N1CCC(n2cc(-c3nc(C(C)C)no3)nn2)CC1 | -13%
Cc1cnc(C(=O)N2CCCN(S(C)(=O)=O)c3ccccc32)cn1 | -2%
O=C(COc1ccccc1)N1CCCC(c2noc(COc3ccccc3F)n2)C1 (centres undefined) | 1%
CCNC(=O)N1CCCCCCNC(=O)[C@@H]2CCCC[C@@H]21 | 4%
COc1ccc(C(=O)N[C@@H]2CCC[C@@H]2C(=O)NCc2ccc(C)cc2)cn1 | 4%
COc1ccc2[nH]c3c(c2c1)CCNC31CCN(C(=O)c2cnccc2C)CC1 | -12%
O=C(NC(C(=O)Nc1ccccc1)C1CCN(C(=O)c2cccc(F)c2)CC1)c1ccc(F)cc1 (centres undefined) | -17%
CO[C@H]1[C@H](NC(=O)c2cn(C)c3ccccc23)c2ccccc2C12CCNCC2 | 2%
CC(C)c1ccccc1OCC(=O)c1ccc2c(c1)N(CC(=O)N1CCCC1)C(=O)CO2 | -2%
COCCn1nc2n(c1=O)CCN(S(=O)(=O)c1c(C)nn(C)c1C)CC2 | 0%
O=C(NCc1ccc(F)cc1)c1cc(-c2ccc[nH]2)n[nH]1 | ?
Cc1cccnc1CN1CCN2C(=O)N(Cc3ccc(F)cc3)C[C@H]2C1 | 6%[70.6 µM]
O=S(=O)(c1ccc(Cl)s1)N1CCC(n2cnnc2C2CC2)CC1 | -17%
C[S+](=O)([O-])c1cccc(NC(=O)c2nnn3c2CN(Cc2cccc(Cl)c2)C(=O)CC3)c1 | 3%
COc1ccc(-c2noc([C@@H](C)NC(=O)COc3ccccc3)c2C(=O)O)cc1 | 0%[70.6 µM]
Cc1noc(-c2cccn3c(CNC(=O)c4cccc(Cl)c4)nnc23)n1 | 1%
CC(C)c1nc2nccc(-c3cc4ccccc4o3)n2n1 | 0%
CCN1C(=O)C2CC3(CCN(C4CCOCC4)CC3)CN2C1=O (centres undefined) | 4%
Cc1cc(C)n(CC(=O)N2CC[C@@H]3CN(S(C)(=O)=O)[C@@H]3C2)n1 | -4%
O=C1CC2(CCN(C(=O)CCn3cc(Cl)cn3)C2)C(=O)N1 (centres undefined) | 7%
O=C(NC[C@H]1Cn2c(-c3ccccc3)cnc2CO1)C1CCCC1 | 5%[70.6 µM]
CN(c1ccccc1)c1cc(=O)c2ccnc(N3CCN(c4ccccn4)CC3)c2o1 | -13%[70.6 µM]
CC(C)(C)NC(=O)N1CCCCCCNC(=O)[C@@H]2C[C@@H](c3nc(-c4cccnc4)no3)C[C@@H]21 | 4%
COc1cc(CNC(=O)[C@@H]2C[C@H](c3ccc(F)cc3)N(Cc3csc(C)n3)C2)cc(OC)c1 | -3%
CCC(C)NC(=O)Cn1ccn2nc3c(c2c1=O)CCCC3 (centres undefined) | -6%
